High-throughput results (PubChem BioAssay)
SARS PLpro yeast = inhibitors of SARS-CoV papain-like protease in yeast | S. cerevisiae expressing SARS-CoV PLpro, growth rescue; control for the full effect not named in the record | Potency, µM (titrated, usually from 32.9 µM), for inactives: at the highest dose activity, positive = growth rescue | 330,000 compounds, 0.19% hits | AID 485353; active means well fitted rising curve with a large enough effect; inconclusive means small, poorly fitted or top-dose-only effect; inactive means no such curve, though single readings can be large or run the other way; note: 0% is about no effect; nearly all actives have a fitted effect of over 55% in size; growth read by luminescence after 48 h
Cruzain inh Det = inhibitors of Trypanosoma cruzi cruzain with detergent; purified cruzain, Z-FR-AMC fluorescence, 0.01% Triton; P25779; Potency, µM, without a hit: max response, negative = inhibition, actives largely listed as inhibitors; 200,000 compounds, 0.43% hits; AID 1478;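 note: plate controls were neutral wells for no effect and buffer without enzyme for full effect; nearly all actives have a fitted effect of over 40% in size; top concentration of the series not given in the record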
Target sequence (P25779 123-467 limits assumed): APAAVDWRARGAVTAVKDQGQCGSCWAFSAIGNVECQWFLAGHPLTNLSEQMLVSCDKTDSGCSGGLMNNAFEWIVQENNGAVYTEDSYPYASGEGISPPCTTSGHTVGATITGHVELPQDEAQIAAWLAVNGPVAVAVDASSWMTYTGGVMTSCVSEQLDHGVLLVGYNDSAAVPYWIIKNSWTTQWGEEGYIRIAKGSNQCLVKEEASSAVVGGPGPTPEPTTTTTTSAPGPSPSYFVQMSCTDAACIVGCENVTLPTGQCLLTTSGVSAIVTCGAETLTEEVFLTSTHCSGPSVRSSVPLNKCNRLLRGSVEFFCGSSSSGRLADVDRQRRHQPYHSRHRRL
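Read-out: AMC fluorescence (360 nm excitation, 450 nm emission), four reads over 2 min, first-to-third difference used. Conditions: cruzain 1.5 nM, Z-FR-AMC 2 uM, pH 5.5 acetate, 5 mM DTT, 0.01% Triton X-100.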
LASV entry inh = inhibitors of Lassa virus binding or cell entry. Lassa virus pseudotype entry inhibition, cell reporter; control for the full effect not named in the record. Potency, µM (series often up to 37.9 µM), inactives show top-dose activity change, negative = inhibition, usual class: inhibitors. 300,000 compounds, 1.2% hits. AID 540256; active means well fitted inhibition curve with a large enough effect; inconclusive means small, poorly fitted or top-dose-only effect, or effect the other way; inactive means flat fitted curve, though single readings scatter; tested in HEK293 cells; note: % is set by controls: 0 for no effect and ±100 for the full control effect; nearly all actives have a fitted effect of over 50% in size; luciferase read-out
Cruzain noTriton = blocks cruzain activity in detergent-free assay; P25779; purified cruzain, Z-FR-AMC fluorescence, no detergent; Potency, µM, inactives show max response, negative = inhibition, usual class: inhibitors; 200,000 compounds, 2.3% hits; AID 1476;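 note: plate controls were enzyme without inhibitor for no effect and buffer without enzyme for full effect; nearly all actives have a fitted effect of over 40% in size; top concentration of the series not given in the record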
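Purified cruzain at 1.5 nM, pre-incubated 15 min with compound at room temperature in 100 mM sodium acetate pH 5.5, 5 mM DTT, 0.00005% Triton X-100. Reaction started with 2 uM Z-FR-AMC; AMC fluorescence increase over 60 s gives rate.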
2A StopGo = FMDV 2A StopGo reporter, luciferase signal. human cells with a luciferase reporter of 2A StopGo recoding; control for the full effect not named in the record. Potency, µM (series often up to 57.9 µM), without a hit: top-dose signal change, negative = less light. AID 1159524. 410,000 compounds, 1.2% hits; active = well fitted falling curve with a large enough effect; inconclusive = small, poorly fitted or top-dose-only effect; inactive = no such curve, though single readings can be large or run the other way; tested in HEK293T cells; note: % is set by controls: 0 for no effect and ±100 for the full control effect; nearly all actives have a fitted effect of over 45% in size; luciferase light after 4 h
MARV entry inh = Marburg virus entry inhibition | Marburg virus pseudotyped entry inhibition, cell reporter; control for the full effect not named in the record; about a third of the inactives were read at about 46 µM | Potency, µM (titrated, usually from 37.8 µM), for inactives: top-dose activity change, negative = inhibition, hits mostly inhibitors | AID 540276 | 300,000 compounds, 1.8% hits; active = well fitted inhibition curve with a large enough effect; inconclusive = small, poorly fitted or top-dose-only effect, or effect the other way; inactive = flat fitted curve, though single readings scatter; tested in HEK293 cells; about a fifth of its hits are not listed in these tables; note: % is set by controls: 0 for no effect and ±100 for the full control effect; luciferase read-out
RE007 growth inh = less growth of the S. pombe RE007 Vpr strain | S. pombe RE007 Vpr strain, BacTiter-Glo ATP luminescence, 24 h; control for the full effect not named in the record | Potency, µM (series often up to 92.2 µM), inactives show top-dose activity change, negative = less growth | 360,000 compounds, 0.21% hits | AID 651644; active = well fitted falling curve with a large enough effect; inconclusive = small, poorly fitted or top-dose-only effect; inactive = no such curve, though single readings can be large or run the other way;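 note: % is set by controls: 0 for no effect and ±100 for the full control effect; nearly all actives have a fitted effect of over 50% in size; the assay follows cell death caused by Vpr and the record does not say whether a fall means rescue or toxicity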
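Fission yeast RE007 carrying one integrated HIV-1 vpr copy, seeded at OD 0.01 in PMG+AL medium with 23 nL pinned compound. Grown 24 h at 30 degrees; viability read by BacTiter-Glo luminescence after 5 min.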
NS1 function inh = influenza NS1 inhibition; S. cerevisiae slowed by influenza A NS1, growth recovery by OD600; Potency, µM (top dose mostly 46.1 µM), without a hit: at the highest dose activity, positive = more growth; 270,000 compounds, 0.4% hits; active means well fitted rising curve with a large enough effect; inconclusive means small, poorly fitted or top-dose-only effect; inactive means no such curve, though single readings can be large or run the other way; note: nearly all actives have a fitted effect of over 50% in size
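Read-out: OD600 growth recovery of NS1-expressing budding yeast. Cells grown overnight at 30C in -URA glucose medium, washed, resuspended and diluted 1:100 in 2% galactose assay medium, pH 6.0. Same strain lacking NS1 served as positive control.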
An asterisk follows results filed as active; ? = inconclusive; . = not tested or not shown; & = joins results of further samples; [ ] = remark or other dose. Unless noted, calls come from the whole dose curve; as a rule, active = well fitted curve in the direction sought with a large enough effect; inconclusive = small, poorly fitted or top-dose-only effect, or another doubt; inactive = no such curve, though single readings can be large; an effect the other way counts as inactive or inconclusive. Potency is the fitted concentration of half-maximal effect.

A first look:
SMILES | SARS PLpro yeast | Cruzain inh Det | LASV entry inh | Cruzain noTriton | 2A StopGo | MARV entry inh | RE007 growth inh | NS1 function inh
Cc1ccc(Cl)cc1N(C)C(=O)C1CCCN(c2ncnc3onc(-c4ccc(F)cc4)c23)C1 (configuration not stated) | . | -5.7% | ? | 2% | -16% | . | . | .
COc1cc(C=O)ccc1OCc1ccccc1Br | 3% | -7.5% | -1% | -1% | 26% | -8% | -4% | -38%

The whole of this part, repeating the preview:
SMILES | SARS PLpro yeast | Cruzain inh Det | LASV entry inh | Cruzain noTriton | 2A StopGo | MARV entry inh | RE007 growth inh | NS1 function inh
Cc1ccc(Cl)cc1N(C)C(=O)C1CCCN(c2ncnc3onc(-c4ccc(F)cc4)c23)C1 (configuration not stated) | . | -5.7% | ? | 2% | -16% | . | . | .
COc1cc(C=O)ccc1OCc1ccccc1Br | 3% | -7.5% | -1% | -1% | 26% | -8% | -4% | -38%
Cn1c(-c2ccc(F)cc2)cnc1NCc1ccc(F)cc1F | -5% | . | . | . | 21% | . | -3% | -7%
COc1cc(OC)c2ccc(=O)oc2c1C(CCN1CCCC(C)C1)c1ccc2c(c1)OCO2 (configuration not stated) | 0% | . | . | . | -24% | . | ? | 1%
COc1ccc(CCN(C)C(=O)C2CCCN(C3CCN(Cc4ccccc4)CC3)C2)cc1OC (configuration not stated) | 2% | . | . | . | -14% | . | -6% | 0%
Cc1ccc(S(=O)(=O)c2nc(-c3ccccc3)oc2SCC(=O)NC2CCCCC2)cc1 | . | -1.4% | -9%[46.1 µM] | 2% | -3% | 0%[46.1 µM] | . | .
Fc1ccc(Nc2nnc(C(F)(F)F)s2)cc1 | -4% | . | -8% | . | -6% | 0% | 3% | -10%
Cc1cc(Nc2cc(C)on2)n2ncnc2n1 | 12% | 4.4% | . | -9% | -21% | . | -4% | -1%
FC(F)(F)c1cnc(-c2cnc(-c3ccccn3)nc2)c(Cl)c1 | 1% | . | -26% | . | -22% | ? | -20% | .
CN(C)c1ccc(/C=N/OC(=O)Nc2ccccc2Cl)cc1 | -3% | . | -24% | . | 58%[activator] | 20% | 6% | .

Looked up one by one from above (5):
SMILES | SARS PLpro yeast | Cruzain inh Det | LASV entry inh | Cruzain noTriton | 2A StopGo | MARV entry inh | RE007 growth inh | NS1 function inh
CN(C)c1ccc(/C=N/OC(=O)Nc2ccccc2Cl)cc1 | -3% | . | -24% | . | 58%[activator] | 20% | 6% | .
Cc1cc(Nc2cc(C)on2)n2ncnc2n1 | 12% | 4.4% | . | -9% | -21% | . | -4% | -1%
Cc1ccc(Cl)cc1N(C)C(=O)C1CCCN(c2ncnc3onc(-c4ccc(F)cc4)c23)C1 (configuration not stated) | . | -5.7% | ? | 2% | -16% | . | . | .
COc1ccc(CCN(C)C(=O)C2CCCN(C3CCN(Cc4ccccc4)CC3)C2)cc1OC (configuration not stated) | 2% | . | . | . | -14% | . | -6% | 0%
FC(F)(F)c1cnc(-c2cnc(-c3ccccn3)nc2)c(Cl)c1 | 1% | . | -26% | . | -22% | ? | -20% | .

Additional structures.
SMILES | SARS PLpro yeast | Cruzain inh Det | LASV entry inh | Cruzain noTriton | 2A StopGo | MARV entry inh | RE007 growth inh | NS1 function inh
CCNC(=O)C(=O)NCC1OCCCN1S(=O)(=O)c1cccs1 (configuration not stated) | 20% | -3.2% | -1% | -8% | 2% | -1% | 3% | -7%
O=C(CSCc1ccc([N+](=O)[O-])cc1)NCCSCc1ccccc1 | -2% | 7.7% | -3% | 0% | -15% | -5% | 14% | -12%
O=C(c1ccc([N+](=O)[O-])cc1)n1nc(-c2ccccc2)nc1NCc1ccc(F)cc1 | 11% | -1.4% | 15% | ? | 7% | -1% | 7% | 2%
Cc1ccc(CNc2nc(-c3cccs3)nc3ccccc23)cc1 | -74% | -13% | 3% | -1% | -23% | ? | -13% | -40%
CC(=O)c1cccc(N(CC(=O)O)S(C)(=O)=O)c1 | 7% | 1.1% | 4% | -11% | -16% | 9% | 18% | 3%
COc1ccc(NC(=O)c2cnc3sc(N4CCOCC4)nn3c2=O)c(OC)c1 | . | 6.9% | 8%[46.1 µM] | -8% | -20% | . | . | .
O=C1CSC(=NC(=O)c2ccccc2)N1 | -6% | 2.0% | 14% | 0% | . | 15% | -19% | -17%
CCOC(=O)c1sc2nc(C)c([N+](=O)[O-])c(COC)c2c1N | 0% | . | . | . | -21% | . | -3% | -3%
COCCNc1oc(-c2ccc(C)cc2)nc1C#N | -4% | -15% | ? | -9% | 32%[activator] | -1%&-1% | 9% | -6%
Cn1c(N2CCOCC2)nc2c1c(=O)n(Cc1ccc(Cl)c(Cl)c1)c(=O)n2C | -13% | -7.5% | 0% | ? | -29% | -12% | 2% | -43%
CCc1nnc(NS(=O)(=O)c2ccc(NC(=S)NC(=O)c3ccc(OC)cc3)cc2)s1 | 14% | ? | -20% | 19% | 9% | 7% | -5% | ?
CCOc1cccc(C(=O)Nc2ccc3oc(-c4ccncc4)nc3c2)c1 | . | -3.4% | -1%[46.1 µM] | ? | ? | . | . | .
Cc1cc(SCC(=O)Nc2cccnc2Cl)nc2ccccc12 | 0% | . | 18% | . | ? | 2% | 6% | .
CC(=O)c1ccc(NC(=S)N2CC(C)CC(C)C2)cc1 (configuration not stated) | ? | -1.6% | 25% | 6% | 56%[activator] | 15% | -21% | 13%
c1ccc(OCCSc2nnc3sc4ccccc4n23)cc1 | -13% | 0.1% | 10µM* | 6% | . | 2.1µM* | -5% | -50%
O=C1CCC(=O)N1c1nc2nc(-c3ccccc3)cc(-c3ccccc3)n2n1 | -1% | -3.7% | -18% | 7% | 4% | 1%&1% | 6% | 12%
O=C(CN(C(=O)Cn1nnc(-c2cccs2)n1)c1cnc2ccccc2c1)NCC1CCCO1 (configuration not stated) | 19% | -6.0% | 10% | 14% | 8% | -1%&-15% | -2% | -10%
CC1(C)NC(=O)N(CC(O)CN(c2ccccc2)S(=O)(=O)c2ccc([N+](=O)[O-])cc2)C1=O (configuration not stated) | -3% | . | . | . | -22% | . | 10% | 3%
O=C(CCOc1ccccc1)Nc1cccc(S(=O)(=O)Nc2ccccc2Cl)c1 | 4% | -6.3% | ? | -10% | 6% | 4% | 9% | -13%
O=C(O)c1cnc(-c2ccccc2)nc1Sc1ccc(Cl)cc1Cl | -7% | -11% | -7% | ? | -25% | 18% | -5% | -3%
N/C(=N\OC(=O)C(c1ccccc1)c1ccccc1)c1cccnc1 | -27% | -3.4% | -1% | -5% | -14% | -7% | 16% | -105%
COc1ccc(Br)cc1/C=N/Nc1ccc(Cl)c(C(=O)O)c1 | 3% | . | 15% | . | 5% | -12% | -4% | .
Cc1nc(NC(=O)c2ccccc2)sc1C | -3% | . | . | . | 61%[activator] | . | -12% | -14%
Cc1ccc(N(C(C)C(=O)O)S(=O)(=O)c2cccnc2)cc1 (configuration not stated) | 2% | 1.2% | . | -2% | -24% | . | 2% | 4%
CCOC(=O)c1cc(-c2ccccc2)n(-c2cccc(C(=O)Nc3ccc(OC)cc3)c2)c1C | . | -0.9% | -1%[46.1 µM] | 25µM* | 0% | . | . | .
Cc1[nH]c2ccccc2c1C(=O)C(=O)NCc1cccs1 | -5% | . | ? | . | -3% | 21%[46.1 µM] | 5% | .
CC(=O)c1ccc(NC(=O)CSc2nc(-c3ccccc3F)nc3c2c(=O)n(C)c(=O)n3C)cc1 | . | 4.1% | 5%[46.1 µM] | 1% | -8% | . | . | .
COC(=O)Nc1ccc(S(=O)(=O)Nc2cccc3ccccc23)cc1 | 0% | -8.0% | -19% | -20% | 0% | -13% | -6% | 5%
COc1cccc(C(C(=O)NC2CCCCC2)N(C(=O)c2cccs2)c2ccc3c(c2)OCO3)c1 (configuration not stated) | 17% | -2.7% | ? | -3% | -13% | -33% | 0% | -2%
O=C(NCc1ccc2c(c1)OCO2)C1CCN(S(=O)(=O)c2ccc(Br)s2)CC1 | 3% | -1.0% | -1% | 4% | ? | 0% | -9% | -37%
CC(CCc1ccccc1)C(=O)NO (configuration not stated) | -4% | 3.6% | 16% | 1% | 13% | 17% | -8% | -1%
Cc1ccc(C(OC(=O)c2ccco2)C(=O)NC(C)(C)C)cc1 (configuration not stated) | 2% | . | 13% | . | -10% | 25% | -15% | -3%
CCOC(=O)N1CCc2c(sc3c2c(=O)n(-c2ccc(Cl)cc2)c(=O)n3CC(=O)Nc2ccccc2)C1 | . | 1.6% | 4%[46.1 µM] | 1% | -13% | . | . | .
CC(C)(C)OC(=O)C1C(=O)CC(C)(O)C(C(=O)OC(C)(C)C)C1c1cccnc1 (configuration not stated) | 14% | 4.8% | -7% | 15% | -12% | -21% | -23% | 2%
CC1(C)CC(=O)C(C=NCCCO)=C(O)C1 | 1% | 0.8% | -9% | -6% | . | 13% | 4% | -12%
O=C(NC1CCCC1)C(c1cccs1)N(C(=O)c1ccno1)c1ccccc1 (configuration not stated) | 0% | 1.9% | -14% | 1% | -10% | ? | 12% | 2%
CCn1nc(-c2ccccc2)c(-c2ccccc2)c(C(=O)Nc2ccccc2C(N)=O)c1=O | . | -3.1% | 7%[46.1 µM] | 12% | -7% | -16%[46.1 µM] | . | .
CCCCNC(=S)Nc1ccc2cn[nH]c2c1 | 23% | -3.0% | ? | -9% | -7% | 23% | 5% | -7%
Cc1cccc(-c2nsc(SCC(=O)Nc3nccs3)n2)c1 | -1% | 0.7% | 19% | ? | 26% | 1% | -2% | -8%
NC(=O)Cc1ccc(C(=O)c2ccc(Cl)cc2Cl)s1 | -12% | . | 13%[46.1 µM] | . | 5% | 15%[46.1 µM] | 14% | .
N=c1n(CCO)c2ccccc2n1CCOc1ccc(F)cc1 | . | -0.3% | 20%[46.1 µM] | -10% | -24% | -6%[46.1 µM] | . | .
CCCNC(=S)Nc1ccc2nc(-c3ccccn3)c(-c3ccccn3)nc2c1 | 9% | -6.1% | 17% | -3% | 0% | 8% | 20% | 3%

Outcome played no part in choosing rows; any-hit rate near 4.5%.
